VACV mCherry inh: vaccinia inhibition (mCherry reporter); Vaccinia virus mCherry reporter infection, fluorescence; about a quarter of the inactives have no number; Potency, µM (titrated, usually from 36.5 µM), inactives show at the highest dose activity change, negative = inhibition, usual class: inhibitors; AID 720579; 310,000 tested, 0.63% active; active = well fitted inhibition curve with a large enough effect; inconclusive = small, poorly fitted or top-dose-only effect; inactive = no such curve, though single readings can be large or run the other way; tested in A549 cells; also: nearly all actives have a fitted effect of over 35% in size; inactives centre near -10
Vaccinia Venus: inhibitors of vaccinia virus (Venus reporter); Vaccinia virus Venus reporter expression, fluorescence; Potency, µM (series often up to 36.5 µM), without a hit: at the highest dose activity change, negative = inhibition, actives largely listed as inhibitors; 330,000 tested, 0.46% active; active means well fitted inhibition curve with a large enough effect; inconclusive means small, poorly fitted or top-dose-only effect; inactive means no such curve, though single readings can be large or run the other way; tested in A549 cells; also: nearly all actives have a fitted effect of over 30% in size; inactives centre near -10
Active calls of the source: *; i = inactive; ? = inconclusive; nt = not tested or not shown; [ ] = another dose, or the depositor's remark. % is scaled to controls: 0 for no effect and ±100 for the full control effect; potency is read from the fitted curve at half-maximal effect.

SMILES | Vaccinia Venus | VACV mCherry inh
CC(=O)Nc1ccc(S(=O)(=O)NC2(C(F)(F)F)C(=O)Nc3c2c(=O)[nH]c(=O)n3Cc2ccccc2)cc1 (stereo not drawn) | 4.7% | -7.3%
O=C(NCCCc1nc2ccccc2n1CCCOc1ccccc1)C1CCCCC1 | -12.1% | -13.2%
Cc1ccc(NC(=O)CN(C)C(=O)c2cc(S(=O)(=O)N(C)C)ccc2N2CCCC2)cc1 | -6.4% | -23.3%
Cc1ccc(N2CCN(C(=O)Cn3ncc4c([nH]c5ccc(C)cc54)c3=O)CC2)c(C)c1 | 0.6% | 4.8%
CCOC(=O)CC1(CCc2ccccc2)Oc2ccccc2O1 | -12.7% | -13.1%
CC1(C(=O)NS(=O)(=O)c2ccc(Cl)cc2)CCN1C(=O)CCc1ccccc1 (stereo not drawn) | -3.1% | -6.1%
COC(=O)c1c(NC(=O)c2ccc(S(=O)(=O)N(C)C3CCCCC3)cc2)sc2c1CCN(C)C2 | -2.0% | -0.2%
CCc1ccc(OC(=O)Nc2ccccc2)cc1 | 12.0% | 0.3%
C[C@H](NC(=O)c1nc[nH]c1C(=O)N(C)Cc1ccccc1)c1ccccc1 | -26.9% | -1.1%
CCN(CC(=O)Nc1c(F)cccc1F)C(=O)CCCN1C(=O)c2ccccc2C1=O | -23.8% | -29.7%

SMILES | Vaccinia Venus | VACV mCherry inh
O=C(CCNS(=O)(=O)c1ccccc1F)N1CCN(C/C=C/c2ccccc2)CC1 | -13.0% | ?
CCOC(=O)N1CCN(C(=O)COc2ccc(S(=O)(=O)NC3CCCCC3)cc2C)CC1 | -22.4% | nt
CC12CCC3C(CCC4CC(O)CCC43C)C1CC(O)C2 (stereo not drawn) | 5.7% | 0.0%
CCN1C(=O)[C@@H]2[C@@H](c3ccc(-c4ccc(Cl)c(Cl)c4)cc3)N3CCCC[C@@]3(C(=O)OC)[C@@H]2C1=O | -23.1% | i
Cc1ccccc1Nc1sc(C(=O)c2ccc(F)cc2)c(N)c1C(=O)NCCc1ccccc1 | ? | ?
CC(=O)N1CCN=C1SCc1ccc(F)cc1 | -8.4% | i
O=C(CSc1nc2ncccc2[nH]1)Nc1ccccc1-c1ccccc1 | -11.8%[7.34 µM] | -10.9%[7.34 µM]
Cc1ccccc1CCN1CCCC(CN(C)C(=O)c2ccc3ncccc3c2)C1 (stereo not drawn) | -2.1% | -16.2%
COc1ccc(NC(=O)Nc2cccc(F)c2)c(OC)c1 | -18.0% | -0.9%
COc1ccccc1NC1SC(=O)N(c2ccccc2)C1=O (stereo not drawn) | -15.9% | -20.4%

SMILES | Vaccinia Venus | VACV mCherry inh
CCN1C(=O)c2ccccc2Sc2ccc(C(=O)NCCCN3CCOCC3)cc21 | -11.7% | i
CCC1CCC2(CC1)NNC(=S)NN2 | -17.0% | -10.4%
Cc1ccccc1N1C(=O)c2cccc([N+](=O)[O-])c2C1=O | -20.9% | -12.7%
CCOC(=O)CSC1=C(C#N)C(=O)NC(c2ccc(OC)c(OC)c2)S1 (stereo not drawn) | -12.7% | -17.3%
COc1ccc(-c2nnc(SC)o2)c(OC)c1 | -6.5% | -9.3%
O=C(c1ccc(Cl)nc1)N1CCN(S(=O)(=O)c2ccc(Cl)cc2)CC1 | -5.8% | i
CCC1S/C(=N/N=C/c2ccco2)N(Cc2ccccc2)C1=O (stereo not drawn) | 8.4% | -5.8%
COc1ccccc1-c1cc(C(F)(F)F)c(C#N)c(=O)[nH]1 | -9.3% | i
COC(=O)c1sc2nc(CN3CCOCC3)nc(N3CCOCC3)c2c1C | -6.9% | -14.5%
Cc1cc(C)nc(SCc2nnc(SCC(=O)Nc3ccc(C)c(C)c3)o2)n1 | 2.4% | -9.2%

Some of the entries so far, with each value named.
COc1ccccc1-c1cc(C(F)(F)F)c(C#N)c(=O)[nH]1
  Vaccinia Venus = -9.3% | VACV mCherry inh = i

CCC1S/C(=N/N=C/c2ccco2)N(Cc2ccccc2)C1=O (stereo not drawn)
  Vaccinia Venus = 8.4% | VACV mCherry inh = -5.8%

COc1ccc(-c2nnc(SC)o2)c(OC)c1
  Vaccinia Venus = -6.5% | VACV mCherry inh = -9.3%

CCN1C(=O)c2ccccc2Sc2ccc(C(=O)NCCCN3CCOCC3)cc21
  Vaccinia Venus = -11.7% | VACV mCherry inh = i

Carrying on.
SMILES | Vaccinia Venus | VACV mCherry inh
O=C(Nc1cccc(OC(F)(F)F)c1)C1Cc2c(-c3ccccc3Oc3ccccc3)ccnc2O1 (stereo not drawn) | -22.5% | -20.3%
CCOC(=O)c1cccc(NC(=O)c2ccco2)c1 | -4.8% | -16.4%
CC(O)CNc1ccc(-c2n[nH]c(=O)c3ccccc23)cc1[N+](=O)[O-] (stereo not drawn) | -17.9% | -10.4%
COc1ccc(CCN2C(=O)C=CC2=O)cc1OC | -27.8% | ?
CCN(CC(=O)Nc1ccccc1C(F)(F)F)C(=O)COc1cccc2c1OC(C)(C)C2 | -9.0% | -2.2%
O=C(CCN1CCCC1)Nc1ccc(Br)cc1 | 3.4% | -7.7%
Cn1c(NCc2ccccc2)nc2cc(-c3cccc(C(F)(F)F)c3)sc2c1=O | -8.3% | i
COc1cccc(OC)c1C(=O)OCCCOC(=O)c1c(OC)cccc1OC | -10.8% | i
CC1=CC(C)(C(Cl)(Cl)Cl)C(C)=CC1=NO (stereo not drawn) | -25.3% | -9.1%
COc1ccc(C2C(C(=O)NCc3cccnc3)c3cc(OC)c(OC)cc3C(=O)N2C)cc1 (stereo not drawn) | -4.3% | i

SMILES | Vaccinia Venus | VACV mCherry inh
Cn1cc(S(=O)(=O)Nc2ccc3c(c2)OCCO3)cn1 | 3.8% | 7.0%
COc1ccc(C2C(C#N)=C(N)N(c3cccnc3)C3=C2C(=O)CC(C)(C)C3)cc1OC (stereo not drawn) | -16.5% | -17.2%
S=C(Nc1ccccc1Cl)Nc1ccc(Cl)cc1Cl | -1.5% | nt
CSCCC(NC(=O)COc1ccccc1)C(=O)NCC1COc2ccccc2O1 (stereo not drawn) | -14.2% | -13.9%
FC(F)(F)c1cc(CCN2C(=S)NC[C@@H]2c2ccccc2)cc(C(F)(F)F)c1 | -25.3% | -13.3%
CC1=C(C(=O)NC(C)c2ccc3c(c2)OCCO3)C2(CCC(C)CC2)OC1=O (stereo not drawn) | 2.6% | -9.0%
CCN(CC)C(C)C(=O)Nc1c2c(cc3c1CCC3)CCC2 (stereo not drawn) | -4.4% | i
CCOC(=O)NC(=O)/C(N=Nc1cc(C)cc(C)c1)=C(\C)O | -6.1% | 0.8%
Cc1cc(C)cc(N(CC(=O)NCc2ccc(F)cc2)C(=O)c2snc(C(N)=O)c2N)c1 | -21.5% | -5.0%
CN(C)S(=O)(=O)c1ccc(NC(=O)C2CC3C=CC2C3)cc1 (stereo not drawn) | -17.4% | 5.9%

SMILES | Vaccinia Venus | VACV mCherry inh
CC(C)c1ccc(NC(=O)c2ccc3oc(=O)c(S(=O)(=O)c4ccc(F)cc4)cc3c2)cc1 | -6.6% | -6.3%
CC(C)Cc1nnc(NC(=O)CSc2ccccn2)s1 | -12.5% | -15.0%
Cc1ccc(CSCC(=O)N2CCN(c3cc(Cl)ccc3C)CC2)cc1 | -11.0% | -6.4%
C=CCn1c(SCC(=O)NCCOC)nnc1-c1cc2c(s1)CCC(CC)C2 (stereo not drawn) | -18.8% | -4.9%
COc1ccc(C(=O)OCC(=O)c2ccc(C3CCCCC3)cc2)cc1 | -3.7% | -10.0%
O=C1c2ccccc2CCC12OC2c1ccncc1 (stereo not drawn) | -17.4% | -10.7%
COc1ccc(C=C2SC(=S)NC2=O)c(OC)c1OC | -17.6% | i
Cc1noc(C)c1COc1cccc(C(=O)Nc2ccccc2N2CCOCC2)c1 | -19.5% | -14.0%
Cc1ccccc1NC(=O)CSCn1nnc2c(=O)[nH]c(Cc3ccc(F)cc3)nc21 | -1.1% | -5.4%
Cc1c(C)n(Cc2ccccc2)c2ccc(C(=O)NCCc3ccccc3Cl)cc12 | -7.5% | -10.6%

SMILES | Vaccinia Venus | VACV mCherry inh
Cc1ccc2c(c1)NC(=O)C(CC(=O)O)O2 (stereo not drawn) | -6.4% | -3.2%
O=C(c1cccc(F)c1)N1CCCC(C(=O)N2CCN(c3ccccc3)CC2)C1 (stereo not drawn) | -20.4% | -16.7%
O=C(Nc1cccc(C(=O)OCc2cc(=O)n3nc(C4CC4)sc3n2)c1)c1cccc(F)c1 | -4.6% | -11.6%
CCCCCCc1cc2cc(C(=O)Nc3ccccc3)c(=O)oc2cc1O | -10.2% | i
O=C(c1cc(-c2ccncc2)nc2ccccc12)N1CCN(c2ccc(N3CCOCC3)nn2)CC1 | -15.8% | i
Cc1ccc2nc(SCC(=O)Nc3cccc(Cl)c3)nc(=O)n2c1 | -11.1% | -18.2%
CC(C)CN(CC(C)C)c1ccc(/C=N/n2cnnc2)cc1[N+](=O)[O-] | 12.0% | -20.2%
COc1ccc(/C=C/C(=O)Oc2ccc(/C=N/NC(=O)c3ccncc3)cc2)cc1 | -4.4% | -14.2%
COc1ccc(CN2CCNC(=O)C2CC(=O)N(C)Cc2nonc2C)c(F)c1 (stereo not drawn) | -10.4% | i
CCN(C(=O)c1cc2c(s1)-c1ccccc1OC2)c1cc(Cl)ccc1OC | 3.6% | -9.5%

SMILES | Vaccinia Venus | VACV mCherry inh
CN(C)c1ccc(C(C(=O)NC2CCCC2)N(C(=O)c2csnn2)C2CC2)cc1 (stereo not drawn) | -8.1% | -13.0%
CCCOc1ccc(C(=O)Nc2ccc(-c3cc4ccccc4oc3=O)c(C)c2)cc1 | -29.1% | ?
O=C1C2C3CCCC3=C3CCCC3C2C(=O)N1c1ccccc1 (stereo not drawn) | ? | -8.0%[1.46 µM]
COc1cccc(-c2nc(C(N)=O)c3c(n2)n(-c2ccc4c(c2)OCO4)c(=O)n3C)c1OC | 1.4% | 3.9%
CC(C)CC(NC(=O)C(NC(=O)OC(C)(C)C)C(C)C)C(N)=O (stereo not drawn) | 10.1% | i
O=C(CCNC(=O)c1ccc([N+](=O)[O-])cc1)Nc1ccc(F)cc1 | -3.6% | i
Cn1ccc(=NC=C(C#N)C#N)c2ccccc21 | 1.8% | -9.9%
COC(=O)[C@]1(Sc2ccc(C)cc2)CC(=O)N[C@@H]1c1ccco1 | -5.4% | -14.4%
CCCn1nnc(NC(=S)NC(=O)c2cccs2)n1 | ? | -34.2%
CCCCCCCCCCCC(=O)NC1CCS(=O)(=O)C1 (stereo not drawn) | -3.6% | i

SMILES | Vaccinia Venus | VACV mCherry inh
O=C(CCN1C(=O)C2C3C=CC(C3)C2C1=O)Nc1ccc2c(c1)OCO2 (stereo not drawn) | -2.0% | -19.4%
O=C(Nc1ccc(OCc2ccccc2)cc1)c1cccc([N+](=O)[O-])c1 | ? | ?
Cc1ccc(-c2nc(SCC(=O)N3CCc4ccccc43)c3c(=O)n(C)c(=O)n(C)c3n2)cc1 | -10.0% | 1.1%
NC1=NC(=O)C(c2ccccc2)(c2ccccc2)S1 | -9.8% | -2.4%
Nc1cccc(-c2cn3cccnc3n2)c1 | 5.6% | -10.4%
COc1ccc2oc(C)c(C(=O)c3ccc([N+](=O)[O-])cc3)c2c1 | -24.9% | ?
CCCOc1ccc(-c2nnn(CC(=O)c3c[nH]c4ccccc34)n2)cc1 | -12.1% | -0.6%
O=c1cc(-c2cccc(F)c2)[nH]c2ccccc12 | ? | i
CCn1cnc2sc(C(=O)N(Cc3ccc(N(C)C)cc3)Cc3ccco3)c(C)c2c1=O | -23.6% | nt
Cn1c(=O)c2c(-c3ccccc3)n(-c3ccccc3O)cc2n(C)c1=O | -11.7% | -25.0%

SMILES | Vaccinia Venus | VACV mCherry inh
O=C(CC1C[C@H](C(=O)N2CCCCC2)[C@@]2(CCc3ccccc3)c3[nH]c4ccccc4c3CCN2C1=O)NCc1cccc(C(F)(F)F)c1 (stereo partly drawn) | ? | -24.1%
O=C(c1ccco1)N1CCN(C(c2ccccc2Cl)c2nnnn2Cc2ccco2)CC1 (stereo not drawn) | -4.6% | ?
O=C(CN1CCOCC1)Nc1ccc2c(c1)OC(F)(F)O2 | -3.9% | -4.4%
COc1ccc(C(C)=O)cc1COC(=O)C(CO)NS(=O)(=O)c1ccc(Br)cc1 (stereo not drawn) | -5.1% | -11.9%
COc1cc(OC)c(NC(=O)C(NS(=O)(=O)c2cccc3nsnc23)c2ccccc2)cc1Cl (stereo not drawn) | -4.6% | -13.2%
CCN(CC(=O)NCc1cccs1)C(=O)Cc1ccc(Cl)c(Cl)c1 | 0.4% | i
O=C(COC(=O)CNC(=O)c1cccs1)Nc1ccccc1C(F)(F)F | -7.2% | -14.5%
COc1cc(NC2c3ccccc3C(=O)N2c2ccc(C)cn2)cc(OC)c1OC (stereo not drawn) | -1.1% | ?
C[C@H]1COC(=O)[C@H](Cc2ccc(F)cc2)C/C=C\C[C@@H](CC(=O)NCCO)C(=O)N1 | -7.7% | i
CCOC(=O)c1c(C)c(-c2ccccc2)n(CC(=O)Nc2ccc(OCC)cc2)c1C | -4.8% | -1.8%
CCOc1ccc(S(=O)(=O)N2CCN(Cc3ccccc3)CC2)c2cccnc12 | -28.3% | ?
